2A Renilla – FMDV 2A StopGo reporter, Renilla signal; HEK cells with a luciferase reporter of 2A StopGo recoding; Potency, µM (top dose mostly 57.5 µM), for the others: at the top dose signal change, negative = less light; 120,000 compounds, 0.32% hits; active means well fitted falling curve with a large enough effect; inconclusive means small, poorly fitted or top-dose-only effect; inactive means no such curve, though single readings can be large or run the other way; also: nearly all actives have a fitted effect of over 55% in size; overnight with compound
2A firefly – FMDV 2A StopGo reporter, firefly signal; 120,000 compounds, 0.23% hits; HEK cells with a luciferase reporter of 2A StopGo recoding; Potency, µM (highest dose often 57.5 µM), for the others: top-dose signal change, negative = less light; active = well fitted falling curve with a large enough effect; inconclusive = small, poorly fitted or top-dose-only effect; inactive = no such curve, though single readings can be large or run the other way; also: nearly all actives have a fitted effect of over 60% in size; overnight with compound
Active calls of the source: *; ? = inconclusive; & = joins results of further samples; [ ] = dose if it differs, or a comment. % is scaled to controls: 0 for no effect and ±100 for the full control effect; potency is read from the fitted curve at half-maximal effect. Not all compounds are listed, so the mix of outcomes need not match the whole.

SMILES | 2A Renilla | 2A firefly
COc1ccc(CCN2C(=O)c3[nH]nc(-c4ccccc4O)c3C2c2ccc(OC)cc2)cc1 (stereo not given) | -9% | 0%
Cc1cc(C#N)ccc1OCc1ccc(C#N)cc1 | 2% | 26%
Cn1cnc2c1c(=O)n(CC(=O)N(Cc1ccc(F)cc1)C1CC1)c(=O)n2C | 0% | 11%
O=C1CC(c2ccccc2)SC(c2ccccc2)C1 (stereo not given) | 5% | 12%
COc1cc(NS(=O)(=O)c2cccc(Cl)c2Cl)c(C(=O)O)cc1OC | 30%[activator] | 12%
CCOc1ccc(C(=O)c2cn(CC(=O)Nc3ccc4c(c3)OCCO4)c3ccc(F)cc3c2=O)cc1 | -17% | -13%
Cc1ccc(CNC(=O)c2cccc3cccnc23)cc1 | 81%[activator] | 0%
Cc1cc(SCC(=O)NC(=O)NC(C)C)nc2ccccc12 | 12% | 17%
Cc1ccc(CNC(=O)c2nc(SCc3ccc(C)cc3)ncc2Cl)cc1 | 0% | 5%
CCN(CCCNC(=O)CN1N=C(c2ccc(C)cc2)CCC1=O)c1ccccc1 | -2% | -13%
O=C(Nc1ccc2[nH]c(=O)[nH]c2c1)c1ccc(Cl)cc1N1CCCC1=O | -8% | -5%
O=C(Nc1ccc(F)cc1F)c1ncoc1-c1cccc(Cl)c1 | -6% | 2%
COc1ccccc1CNS(=O)(=O)c1c(C)nc2sc(C)cn2c1=O | -9% | -23%
COc1ccccc1NC(=O)C(=O)c1cc(C)n(-c2cc(C)cc(C)c2)c1C | 12% | 15%
COc1ccccc1NC(=O)c1cc2cc3ccc(OC)c(Cl)c3nc2s1 | -9% | 5%
Cc1ccc2[nH]c(-c3ccccc3)cc2c1 | 6% | 204%[activator]
CCOCC(=O)Nc1ccc(-c2cn3c(C)csc3n2)cc1 | 11% | -5%
Cc1ccc(N(C)C(=O)C2CCCN(c3ncnc4c3nc3n4CCCCC3)C2)cc1C (stereo not given) | -1% | -3%
CCC(CC)C(NC(=O)Cc1ccccc1F)c1cccs1 (stereo not given) | 52%[activator] | 0%
Cc1nc2sc3c(c2c2nc(C(=O)NCc4ccco4)nn12)CC(C)(C)OC3 | 15% | 7%
CN(CC(=O)Nc1cccc(F)c1)Cc1ncc(-c2ccc(Cl)cc2)o1 | -6% | 2%
Fc1ccc(-c2cn3cc(Cc4ccccc4Cl)sc3n2)cc1 | 30%[activator] | 226%[activator]
O=C(CSc1cn(CC(=O)N2CCCCC2)c2ccccc12)Nc1ccccc1F | 69%[activator] | 5%
Cn1c(=O)c2c(-c3ccc(Cl)cc3)n(CCc3ccccc3)cc2n(C)c1=O | 25% | 78%[activator]
O=C(c1cc(=O)c2cc(Cl)ccc2o1)N(Cc1cccs1)c1ccccn1 | 87%[activator] | 5%
CCc1cccc(NC(=O)c2cccc(S(=O)(=O)N3CCOCC3)c2)c1 | 236%[activator] | 21%
CN(Cc1ccccc1F)c1ccc(S(N)(=O)=O)cn1 | 4% | 10%
CCN(c1ccc(NC(=O)COC(=O)c2cc(C)nc3ccccc23)cc1)C(C)C | -2% | 10%
O=C(Nc1nc(-c2cccc3ccccc23)cs1)c1cccs1 | ? | 13µM*
CCc1cc(=O)[nH]c(-n2nc(C)cc2NC(=O)c2ccccc2Br)n1 | ? | ?
COc1ccc(NC(=O)C2Cc3ccccc3N2C(=O)c2ccccc2)c(OC)c1 (stereo not given) | -22% | -21%
COc1ccc(S(=O)(=O)NCCS(=O)(=O)N2CCN(c3ccccc3)CC2)cc1C | 80%[activator] | 5%
CCN1CCN(c2ncnc3c2cnn3-c2cccc(C)c2)CC1 | -15% | 0%
O=C(CCCCC(=O)OCC(=O)c1ccc(Br)cc1)OCC(=O)c1ccc(Br)cc1 | 8% | 4%
c1ccc(-c2c(-c3ccccc3)n(-c3ccccc3)c3ccccc23)cc1 | 5% | -5%
Cc1ccc2cc(C(=O)N3CCCC(C(=O)N4CCOCC4)C3)[nH]c2c1 (stereo not given) | -1% | 0%
COc1cc(CNn2cnnc2)cc(Cl)c1OCc1ccccc1 | ? | -31%
Cn1c(=O)c2c(ncn2CCNc2ccc(Cl)cc2)n(C)c1=O | -14% | -3%
O=C(CCCn1c(=O)[nH]c2ccccc2c1=O)N1CCN(c2ccccc2)CC1 | 9%&26% | -5%&15%
Cc1c(C(=O)N2CCOCC2)oc2c1-c1nn(CC(=O)NCc3cccc(F)c3)cc1CC2 | 21% | 13%
c1ccc(CNNc2ccccc2)cc1 | 3% | 12%
CC(C)(C)C(=O)COC(=O)c1ccc(F)cc1Cl | -13% | -2%
Cc1cccc(Oc2ccc(NC(=O)CC3Sc4ccccc4NC3=O)cc2)c1 (stereo not given) | 0% | 0%
CC(=O)N1CCCc2cc(S(=O)(=O)N3CCC(C(=O)NCc4ccc(F)cc4)CC3)ccc21 | 7% | 4%
Cc1nc(NC(=O)c2ccccc2)sc1-c1csc(Nc2ccccc2Cl)n1 | -2% | 35%[activator]
CC1CCN(S(=O)(=O)c2ccc3c(ccn3CC(=O)NCc3ccccc3F)c2)CC1 | 138%[activator] | 9%
O=C(Nc1nn(Cc2ccc(Cl)cc2Cl)cc1Cl)c1nc2ncccn2n1 | 1% | 29%
Cc1cccc(C(=O)Nc2ccc3nc(SCC(=O)N4CCc5ccccc54)sc3c2)c1 | 0% | 8%
O=C(CC12CC3CC(CC(C3)C1)C2)Nc1ccc2oc(-c3cncc(Br)c3)nc2c1 | 8% | 0%
O=C(c1ccco1)N1N=C(c2ccc(Cl)cc2)CC1c1ccc2nccnc2c1 (stereo not given) | -21% | 4%

An excerpt of the results above, as a working copy:
SMILES | 2A Renilla | 2A firefly
c1ccc(CNNc2ccccc2)cc1 | 3% | 12%
CC(C)(C)C(=O)COC(=O)c1ccc(F)cc1Cl | -13% | -2%
Cc1cccc(Oc2ccc(NC(=O)CC3Sc4ccccc4NC3=O)cc2)c1 (stereo not given) | 0% | 0%
CC(=O)N1CCCc2cc(S(=O)(=O)N3CCC(C(=O)NCc4ccc(F)cc4)CC3)ccc21 | 7% | 4%
Cc1nc(NC(=O)c2ccccc2)sc1-c1csc(Nc2ccccc2Cl)n1 | -2% | 35%[activator]
CC1CCN(S(=O)(=O)c2ccc3c(ccn3CC(=O)NCc3ccccc3F)c2)CC1 | 138%[activator] | 9%
O=C(Nc1nn(Cc2ccc(Cl)cc2Cl)cc1Cl)c1nc2ncccn2n1 | 1% | 29%

The listing continues.
SMILES | 2A Renilla | 2A firefly
CCN1CCCC1CNC(=O)CCCNc1nc(Cl)nc2nc[nH]c12 (stereo not given) | -2% | 1%
COc1ccccc1N(CC(=O)NCCSCc1ccccc1)S(C)(=O)=O | -9% | -15%
COc1ccc(CCNc2oc(COc3ccc(Cl)cc3)nc2C#N)cc1OC | ? | 28µM*
CC(C)=CC(=O)Nc1sc(C)c(C)c1C#N | 3% | 89%[activator]
COc1cc2nc(SCC(=O)Nc3ccc(C)cc3)n(-c3ccccc3)c(=O)c2cc1OC | -8% | -5%
Oc1ccc(C2(c3ccc(O)cc3)CCCCC2)cc1 | 5% | 19%
O=C(Cn1cc(C(=O)c2ccncc2)c(=O)c2cc(F)ccc21)Nc1ccc(Cl)cc1 | -14% | -24%
COc1cc(/C=C/c2cc(C(=O)O)c3ccccc3n2)ccc1O | 10% | 173%[activator]
O=C(NC(NC(=O)C(c1ccccc1)c1ccccc1)c1ccccc1)C(c1ccccc1)c1ccccc1 | -14% | -2%
CCC(C)(CNC(=O)NCc1nc(C)cs1)N1CCOCC1 (stereo not given) | -11% | 22%
COc1ccc(CC(=O)NC2CC(=O)N(c3ccc4c(c3)OCCO4)C2)cc1 (stereo not given) | -10% | -25%
O=C1OCC2=C1C(c1ccc3c(c1)OCO3)CC(=O)N2c1ccccc1 (stereo not given) | -7% | 0%
CCc1c(C)sc(NC(=O)CCCl)c1C#N | -7% | 2%
O=C(CCOc1ccccc1)N1CCN(S(=O)(=O)c2cccs2)CC1 | 4% | 25%
Cn1cc(C(=O)C(=O)NCCc2ccccc2)c2ccccc21 | 58%[activator] | 107%[activator]
O=C(NCCCN1CCN(c2ccc(F)cc2)CC1)Nc1ccccc1Cl | -3% | 2%
Cc1ccc(S(=O)(=O)N2CCCN(C(=O)c3cnn(Cc4ccccc4Cl)c3)CC2)cc1 | 22% | -4%
COC(=O)c1cccc(S(=O)(=O)Oc2ccc3ccc(=O)oc3c2)c1 | -4%[1.06 µM] | 0%
Cc1oc(-c2ccc(Cl)cc2)nc1CS(=O)CC(=O)NCc1ccccc1 (stereo not given) | 0% | 20%
NC(=O)c1nn(CC(O)COc2ccccc2)c(=O)c2ccccc12 (stereo not given) | -1% | -3%
O=C(O)c1coc(Br)c1 | 13% | 14%
Cc1cc(C)c(CN2C(=O)c3ccccc3S(=O)(=O)c3ccc(C(=O)OCC4CCCO4)cc32)c(C)c1 (stereo not given) | 46%[activator] | -14%
CCc1cccc(C)c1NC(=O)C(NS(=O)(=O)c1ccc2c(c1)CCC(=O)N2)c1ccccc1 (stereo not given) | 0% | -12%
Cc1cc(-c2ccc3c(c2)OCCCO3)nc2ccccc12 | -10%[1.06 µM] | 110%[activator]
Cc1ccc(-c2nnn(CC(O)COc3ccc(C)cc3C)n2)cc1 (stereo not given) | -10% | -10%
O=C(Nc1ccc(O)c(-c2nc3ccccc3o2)c1)c1ccccc1Br | -8% | -4%
COc1cc(NC(=O)CCc2ccc(-c3ccccc3)o2)c(OC)cc1Cl | -11% | 46%[activator]
O=C(Nc1ccc(Cl)cc1)N1CCN(c2ccc3nnc(-c4ccccc4)n3n2)CC1 | 13% | -17%
CCOC(=O)c1c(NC(=O)C(CC)Oc2ccccc2)sc(C)c1C (stereo not given) | -1% | -5%
O=S(Cc1cccc(C(F)(F)F)c1)Cc1ccccc1F (stereo not given) | 42%[activator] | 0%
O=C(Nc1ccc(Cl)c(Cl)c1)c1nn(-c2ccccc2)c(=O)c2ccccc12 | -4% | 4%
CC(C)(C)NC(=O)CNC(=O)C1CCCN1S(=O)(=O)c1ccc(Cl)s1 (stereo not given) | 10% | 2%
Cc1cc(-c2ccc(C=O)o2)ccc1Br | ? | 0%
Cc1[nH]c2ccccc2c1C(=O)C(=O)Nc1ccccc1C(C)C | 34% | -3%
O=S1(=O)c2ccc(N3CCN(Cc4ccccc4F)CC3)cc2Oc2ccccc2CN1Cc1cn(Cc2cccc(F)c2)nn1 | 81%[activator] | 14%
O=C(NC1C2CC3CC(C2)CC1C3)c1cc(-c2ccncc2)nc2ccc(Br)cc12 (stereo not given) | 21% | 16%
Cc1ccc(C(C)Nc2ncccc2-c2nc(-c3cccc(C)c3)no2)cc1 (stereo not given) | 0% | 112%[activator]
Cc1ncc(-c2ccc(C)c(S(=O)(=O)N3CCN(c4ccccc4F)CC3)c2)o1 | 53%[activator] | 0%
NC(=O)N/N=C/c1ccc(Br)cc1 | -2% | 1%
CCCCN(C)CCNC(=O)C1CCCN(S(=O)(=O)c2ccc3c(c2)oc(=O)n3C)C1 (stereo not given) | -10% | -21%
O=C(CC1C(=O)N(c2ccc(F)cc2)C(=O)N1Cc1ccc2c(c1)OCO2)Nc1ccc(F)cc1 (stereo not given) | 208%[activator] | -16%
COc1cccc(-c2noc(COc3ccccc3Cl)n2)c1 | -4% | 82%[activator]
CN(C)c1ccc(CNC(=O)CCn2cccn2)cc1 | -6% | -7%
Cc1cc(C)c(S(=O)(=O)Nc2ccc(Cl)c(N3CCCS3(=O)=O)c2)c(C)c1 | 213%[activator] | ?
Cc1ccc(N(CC(=O)NCC(C)c2ccccc2)S(=O)(=O)N(C)C)cc1 (stereo not given) | 100%[activator] | -15%
CC(C)Cn1nc(C(=O)NCc2ccc(C(=O)O)cc2)c2ccccc2c1=O | 10% | 10%
C/C=C(/C(=C/C)c1ccc(O)cc1)c1ccc(O)cc1 | 25% | -4%
CCCn1c2ccccc2c2cnn(CC(=O)N(Cc3ccccc3)C(C)C)c(=O)c21 | 13% | -7%
Cc1nn2c(=O)cc(COC(=O)c3ccc(NC(=O)c4cccc(Br)c4)cc3)nc2s1 | -3% | -11%
CCOc1ccccc1NC(=O)Nc1nnc(N(CC)c2ccccc2)s1 | -5% | -1%

Fetched by compound from above, three records:
SMILES | 2A Renilla | 2A firefly
COc1ccc(CCNc2oc(COc3ccc(Cl)cc3)nc2C#N)cc1OC | ? | 28µM*
COc1ccc(CCN2C(=O)c3[nH]nc(-c4ccccc4O)c3C2c2ccc(OC)cc2)cc1 (stereo not given) | -9% | 0%
O=S(Cc1cccc(C(F)(F)F)c1)Cc1ccccc1F (stereo not given) | 42%[activator] | 0%

(continued)
SMILES | 2A Renilla | 2A firefly
O=C1CCCC2=C1C(c1cccnc1)N(C(=O)c1ccccc1)c1ccccc1N2 (stereo not given) | -2% | -1%
N#Cc1c2c(c3nncn3c1NCc1ccncc1)CN(Cc1ccccc1)CC2 | -20% | -17%
Cc1ccc(-c2nnc(SCc3cccc(C#N)c3)o2)cc1 | 9% | 14%
O=C(Nc1ccc(F)c(Cl)c1)N1CCC2(CC1)Oc1ccccc1C(=O)N2Cc1ccccc1F | -6% | 18%
Cn1ccnc1SCC(=O)Nc1sc2c(c1C#N)CCC(C(C)(C)C)C2 (stereo not given) | 2% | 18%
Cc1ccc(Nc2nc(C(=O)N3CCC(C(=O)NCc4ccccc4)CC3)cs2)cc1 | 11% | 48%[activator]
CN(Cc1cccc(Cl)c1Cl)C(=O)CCN=C1NS(=O)(=O)c2ccccc21 | 132%[activator] | 6%
CC(C)N(CC(=O)NC(N)=O)Cc1ccccc1 | 2% | -1%
CC1=C(C(=O)Nc2ccc(C)cc2Cl)C2(CCCCC2)OC1=O | 7% | 0%
